# Menin-MLL FL inh = displaces fluorescein MLL peptide from human menin; Fluorescence polarization, fluorescein-MLL peptide displacement from menin; FP activity change, % at 61.4 µM; 290,000 tested, under 10 active; inconclusive = falling polarisation curve, or a change in total fluorescence; inactive = total fluorescence flat and polarisation flat or rising; no compound was filed as active; the % refers to the polarisation; negative = inhibition;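 further: % of control where 0% means no effect; inhibitors lower the polarisation; unlabelled MLL peptide was the positive control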
# PINK1 expr mod = PINK1 expression modulation. actives 0.2% (n = 410,000). PINK1 immunofluorescence, high-content cytometry, 24 h. Potency, µM (series often up to 76.6 µM), for inactives: at the highest dose activation (PINK1 increase), actives largely listed as activators; active = well fitted activation curve with a large enough effect; inconclusive = small, poorly fitted or top-dose-only effect; inactive = flat fitted curve, though single readings scatter; cell line not stated here;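 further: potency means the concentration at half of the fitted maximal effect; % of control where 0% means no effect; nearly all actives have a fitted effect of over 65% in size; a mitochondrial uncoupler was the plate control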
#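 Readout is PINK1 immunofluorescence, quantified alongside mitochondrial, cell and nuclear markers by laser-scanning microplate cytometry. Cells from a stable line were exposed to compound titrations (5 concentrations) for 24 hours, with CCCP controls.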
# Sfp PPTase inh = blocks B. subtilis Sfp PPTase activity | Potency, µM, without a hit: max response, negative = inhibition, actives largely listed as inhibitors | AID 1490 | Biochemical Sfp PPTase activity, qHTS | Q9F4F7 | actives 3.5% (n = 310,000); active means well fitted inhibition curve with a large enough effect; inconclusive means small, poorly fitted or top-dose-only effect, or another doubt; inactive means no such curve, though single readings can be large or run the other way;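 further: the enzyme is Sfp with the accession as filed and its product quenches rhodamine fluorescence; potency means the concentration at half of the fitted maximal effect; 0% = enzyme reaction without inhibitor and -100% = no enzyme wells; top concentration of the series not given in the record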
#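 Sfp 15 nM + cpd, 15 min RT; start w/ rhodamine-CoA 5 uM, BHQ-2-YbbR 12.5 uM (final); 50 mM Hepes pH 7.6, 10 mM MgCl2, 0.01% NP-40, 0.01% BSA; read 525/598 nm at 0 and 30 min.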
# TRPML1 blocker = blocks the human TRPML1 channel. AID 624415. Q9GZU1. actives 0.02% (n = 390,000). activity change, negative = inhibition, % (concentration not given with the values). TRPML1-inducible cells, Ca2+ dye fluorescence, FDSS; active compounds read low; inhibition of EC80 agonist-evoked calcium signal; in the data active means activity change below about -50%; inconclusive means about -30% to -50%; inactive means above about -30%;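 further: stimulus is agonist 54-4 at its EC80 concentration; on the % scale 0 is the no-effect control and ±100 the full control effect; the text of the record puts the active cut at -80%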
# Target sequence (Q9GZU1 whole entry, looked up): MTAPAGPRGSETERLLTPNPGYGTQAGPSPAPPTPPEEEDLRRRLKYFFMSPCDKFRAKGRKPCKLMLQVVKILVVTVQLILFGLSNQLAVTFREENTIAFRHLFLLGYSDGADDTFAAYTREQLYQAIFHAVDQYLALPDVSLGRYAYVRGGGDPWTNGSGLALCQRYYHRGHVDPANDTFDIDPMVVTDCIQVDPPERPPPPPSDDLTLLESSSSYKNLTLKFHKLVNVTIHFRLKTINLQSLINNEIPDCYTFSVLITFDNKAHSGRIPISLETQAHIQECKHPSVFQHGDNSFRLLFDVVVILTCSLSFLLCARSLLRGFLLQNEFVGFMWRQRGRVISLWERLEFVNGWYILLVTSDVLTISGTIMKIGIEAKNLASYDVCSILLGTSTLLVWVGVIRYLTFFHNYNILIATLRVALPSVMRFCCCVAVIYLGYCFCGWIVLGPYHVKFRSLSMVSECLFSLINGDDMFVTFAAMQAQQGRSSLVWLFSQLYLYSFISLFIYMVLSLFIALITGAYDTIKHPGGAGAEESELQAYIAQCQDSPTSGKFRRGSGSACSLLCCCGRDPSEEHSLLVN
#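 Tet-induced TRPML1-DL cells loaded with Ca8 no-wash calcium dye were read kinetically on FDSS. Compound addition was followed by EC80 agonist 54-4 (4 uM final); inhibition was read over 110 s.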
# TRPML1 agonist = human mucolipin-1 channel agonism | Q9GZU1 | actives 0.12% (n = 410,000) | activation, % (no concentration beside the values) | TRPML1-expressing cells, Ca2+ dye fluorescence, FDSS; host cell line not named in the record; reference of the full effect not given here; in the data active = activation above about 50%; inconclusive = about 30% to 50%; inactive = below about 30%; further: 0% is about no effect; the text of the record puts the active cut at 80%
#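 Cells: TRPML1-DL, 1X Tet inducer, ~16 h at 37 degrees C/5% CO2. Dye: ABD Ca8 no-wash + quencher, 45-90 min RT. Read: 10 s baseline, compound add, 110 s agonist phase; 54-4 EC80 (4uM final), 110 s antagonist phase.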
# TRPV1 potentiator = human TRPV1 potentiation | Q8NER1 | TRPV1-expressing cells, Fluo-8 calcium influx, capsaicin EC20 potentiation; host cell line not named in the record; control for the full effect not named in the record | potentiation, % at 8.33 µM | actives 0.02% (n = 320,000); active means potentiation above 80%; inconclusive means 30% to 80%; inactive means below 30%; further: 0% is about no effect
#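 TRPV1-expressing cells were cultured overnight at 35.5C and loaded with Fluo-8 calcium dye for 40 to 90 min at room temperature. After a 10 s baseline, compound was added and calcium influx was read kinetically for 3 min (ex 480/em 520 nm).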
# ClpP mod = qHTS Assay for Activators of ClpP; ATP-dependent Clp protease proteolytic subunit (Bacillus subtilis (strain 168)), P80244; purified B. subtilis ClpP, FRET peptide cleavage, 20 min; Potency, µM (doses to about 57.5 µM), for the others: at the top dose activity change, negative = active; actives 1.9% (n = 340,000); active = well fitted falling curve with a large enough effect; inconclusive = small, poorly fitted or top-dose-only effect; inactive = no such curve, though single readings can be large or run the other way; further: potency means the concentration at half of the fitted maximal effect; the source files actives as falling curves though it sought activators and does not explain the sign; nearly all actives have a fitted effect of over 65% in size; many hits overshoot -100%
# Target sequence (P80244 whole entry, looked up): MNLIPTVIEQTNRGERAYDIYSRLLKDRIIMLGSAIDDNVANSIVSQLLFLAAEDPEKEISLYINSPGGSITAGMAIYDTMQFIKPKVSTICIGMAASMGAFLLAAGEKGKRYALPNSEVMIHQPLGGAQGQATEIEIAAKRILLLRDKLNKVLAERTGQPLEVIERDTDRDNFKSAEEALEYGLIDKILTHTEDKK
#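 FRET quenching reversal measured ClpP activation: 10 microg/mL B. subtilis ClpP at pH 8 with the FRET-FV decapeptide, read at 430 nm after 320 nm excitation. The 20-min minus 0-min signal was scaled between DMSO/no-enzyme wells and ADEP (5.8 microM final).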
# * hit, by the source's call; u = inconclusive; x = not tested or not shown; & = joins results of further samples; [ ] = remark or other dose.
SMILES,Menin-MLL FL inh,PINK1 expr mod,Sfp PPTase inh,TRPML1 blocker,TRPML1 agonist,TRPV1 potentiator,ClpP mod
N#CC1=C(N)Oc2c(sc3ccccc23)C1c1ccco1 (configuration not stated),u,u,u,15,0.0,9,1.8%
Cc1nnsc1C(=O)NNc1ccc(Cl)cc1,-0.7,-0.7%,1%,17,0.9,12,-1.3%
CC1CSc2n(-c3cccc(C(F)(F)F)c3)cc(-c3ccccc3)[n+]21 (configuration not stated),-1.8,-0.1%,1%,24,-1.3,-3,x
Cc1ccc(S(=O)(=O)N(C)[C@H]2C[C@H]3c4[nH]c5ccccc5c4CCN3C[C@H]2[C@H](C)O)cc1,x,1.7%,x,x,20,x,-10%
COc1ccc(C(=O)COC(=O)c2sc(C)nc2C)cc1OC,x,0.2%,x,-7,-0.7,2,0.3%
CCn1c(CC(=O)Nc2ccc(C)cc2)nnc1SCC(=O)Nc1nc(C)cs1,1.5,8.9%,14%,10,0.9,-30,-0.4%
CCOC(=O)CN(c1ccccn1)S(=O)(=O)c1ccccc1,8.4,2.4%,17%,14,0.3,-8,32µM*
Cc1ccc(CN2COc3c(Cl)cc4c(-c5ccccc5)cc(=O)oc4c3C2)cc1,x,-1.2%,x,3,0.4,x,-6.5%
Cc1c(-c2ccc(Cl)cc2)[n+](=O)c2c(n1[O-])CCCC2,2.8,-1.5%,26%,-6,0.0,1,x
CCOc1ccc(-c2cccc(NS(=O)(=O)c3ccc(F)cc3F)c2)nn1,x,-0.4%,x,-12,0.3,x,-0.8%
COc1ccc2[nH]c(C(=O)N/N=C/c3ccccc3OC)cc2c1,8.4,5.0%,-18%,-12,0.2,-8,-28%
CC(C)C(=O)N[C@@H]1c2ccccc2CC[C@H]1OCc1ccccc1,x,1.5%,x,-13,-0.8,x,1.7%
CCn1cc(C(=O)NCCCN2CCCC(C)C2)c(=O)c2cc(S(=O)(=O)N3CCc4ccccc4C3)ccc21 (configuration not stated),-7.1,-2.1%,5%,-7,0.1,-9,x
CCOC(=O)c1cnc2nc(C)nn2c1N,1.4,2.7%,12%,-5,-0.5,13,-0.2%
Cc1c(Br)c([N+](=O)[O-])nn1CC(=O)Nc1cccc2nonc12,8.0,7.9%,8%,2,0.2,2,0.2%
COc1ccccc1CNC(=O)CN1C(=O)COc2ccc(S(=O)(=O)Nc3ccccc3)cc21,x,1.3%,x,-6,0.5,x,-3.1%
Cc1c(Nc2cc(=O)oc3ccccc23)c(=O)n(-c2ccccc2)n1C,1.1,-1.4%,15%,-5,4.6,6,-3.2%
O=c1[nH]c(SCc2nc3ccccc3n2Cc2ccccc2)nc2ccccc12,-1.1,4.7%,-5%,-3,1.1,-3,-10%
C=CCn1c(SC(C)C(=O)Nc2ccc(Cl)cn2)nnc1C1CC1 (configuration not stated),x,-0.9%,x,-12,1.9,-8,x
CN(CCC#N)C(=O)c1cc2c(s1)-c1ccccc1SC2,13,-1.2%,-11%,-1,-1.4,-15,-3.2%

# Sorted by formula weight (smallest number first): part of the list above
SMILES,Menin-MLL FL inh,PINK1 expr mod,Sfp PPTase inh,TRPML1 blocker,TRPML1 agonist,TRPV1 potentiator,ClpP mod
CN(CCC#N)C(=O)c1cc2c(s1)-c1ccccc1SC2,13,-1.2%,-11%,-1,-1.4,-15,-3.2%
CC(C)C(=O)N[C@@H]1c2ccccc2CC[C@H]1OCc1ccccc1,x,1.5%,x,-13,-0.8,x,1.7%
COc1ccccc1CNC(=O)CN1C(=O)COc2ccc(S(=O)(=O)Nc3ccccc3)cc21,x,1.3%,x,-6,0.5,x,-3.1%

# New compounds follow
SMILES,Menin-MLL FL inh,PINK1 expr mod,Sfp PPTase inh,TRPML1 blocker,TRPML1 agonist,TRPV1 potentiator,ClpP mod
Oc1ccc(O)c(C=NNC(=S)NC2CC3CC2C2C=CCC32)c1 (configuration not stated),x,1.7%,x,-3,-0.5,x,-14%
O=C(c1ccccc1)N1N=C(c2ccco2)CC1c1cccs1 (configuration not stated),-3.0,0.2%,-17%,9,-0.4,-5,x
Cc1c(NC(=O)c2nn3c(c2Br)NC(c2ccccc2)CC3C(F)(F)F)c(=O)n(-c2ccccc2)n1C (configuration not stated),5.3,1.7%,-5%,26,0.0,-6,-1.9%
CC1CCN(CCCNC(=O)c2coc3nc4ccccc4nc23)CC1,4.0,1.0%,17%,3,-0.4,-23,27%
O=C(Nc1nc(-c2ccncc2)cs1)C1COc2ccccc2O1 (configuration not stated),2.0,3.9%,8.9µM*,27,0.4,21,-5.8%
O=C(O)CCn1c(=O)[nH]c(=O)n(CCC(=O)O)c1=O,1.0,1.6%,18%,-6,-0.5,3,x
O=C(COC(=O)c1cc[n+]([O-])cc1)Nc1ccc2c(c1)OCCO2,1.3,0.9%,20%,15,2.1,17,0.4%
COc1ccc(OCc2nc(-c3ccc(F)c(F)c3)cs2)cc1,2.6,5.1%,u,72,3.4,5,x
COc1ccc(C(=O)/C=C/c2ccc3c(c2)OCCO3)cc1,0.4,-1.5%,-11%,25,-0.2,2,3.3%
CC(=O)c1cccc(CN2CCC(C(=O)Nc3ccc(Oc4cccnc4)cc3)CC2)c1,x,0.7%,11%,6,-0.3,-9,0.8%
COc1ccc(-c2csc(N(CCCN(C)C)C(=O)c3ccccc3F)n2)cc1,-1.0,1.6%,-4%,x,x,-5,1.6%
Cc1ccc(C(=O)Nc2cccnc2)cc1C,x,0.5%,x,-5,0.2,x,0.2%
COc1ccc(NC(=O)c2c(C(=O)Nc3ccccc3)sc3nc(C)cc(=O)n23)cc1,x,u,x,-20,-0.4,x,1.0%
CCOc1ccc(N2C(=O)CC(N3CCN(C(=O)CN4CCCC4)CC3)C2=O)cc1 (configuration not stated),-2.3,4.3%[38.3 µM],5%,-5,-0.7,2,-1.1%
C=C1CCN(C(C(=O)OC)C(C)C)S(=O)(=O)c2ccc(F)cc21 (configuration not stated),-5.5&4.0,1.3%,2%&-3%,16&-4,1.4&0.3,u,-2.5%
COC(=O)c1ccc(NC(=O)c2ccccc2SC)cc1,8.4,3.5%[38.3 µM],-24%,2,-0.2,-7,-1.9%
COc1ccc(N2CCN(C(=O)CSc3nnc4c(C)cc5cc(C)ccc5n34)CC2)cc1,0.1,-1.0%,4%,u,-0.2,6,0.4%
COc1ccccc1C(=O)NNC(=O)C(=O)Nc1ccc(C)cc1,-3.0,-2.9%,25%,0,0.6,u,x
CSc1cccc(NC(=O)CC(c2ccc(F)cc2)N2Cc3ccccc3C2=O)c1 (configuration not stated),x,5.8%,x,3,0.5,x,-4.1%
CCCCn1c(N)c(N(CC)C(=O)CSCc2ccc(C)cc2)c(=O)[nH]c1=O,3.0,1.0%,6%,21,-0.4,5,-0.6%
Cc1ccc(CNC(=O)c2cc(Cl)cc(Cl)c2)n1C,2.8,-1.8%,-1%,-7,1.4,-2,-1.9%
CCOc1ccc(N=Cc2c(O)n(-c3cccc(C)n3)c(=O)c3ccccc23)cc1,-14,15%[38.3 µM],6%,-26,13,5,4.0%
O=C(CN1C(=O)CCOc2ccccc21)Nc1cccc(S(=O)(=O)N2CCOCC2)c1,x,0.3%,x,1,-0.3,22,0.9%
COc1ccc(S(=O)(=O)Nc2ccc(Cc3ccncc3)cc2)cc1OC,0.7,-2.9%,0%,-2,-0.6,1,-2.8%
CN1C(c2ccc(F)cc2)=CS/C1=C(\C#N)c1nnc2n1-c1ccccc1SC2,1.6,x,10%,-6,1.7,-4,0.6%
CN(CCOc1ccc(Br)cc1)CC(=O)Nc1cccc(S(=O)(=O)NC2=NCCC2)c1,-7.7,0.4%,5%,10,1.1,8,-0.4%
CCC1(c2ccccc2)NC(=O)N(CC(=O)N(C)CC(=O)Nc2cccc(F)c2)C1=O (configuration not stated),0.2,2.7%,8%,-20,-0.1,1,1.5%
Cc1nnc(N/N=C/c2c(O)n(-c3cccc(C(F)(F)F)c3)c(=O)c3ccccc23)[nH]c1=O,13,x,-2%,x,x,17,x
CCCC(=O)N1CCCC(c2nc(-c3cccs3)no2)C1 (configuration not stated),0.4,-1.0%,17%,4,-1.4,6,0.1%
CCOC(=O)C1(CC2CCCCO2)CCN(S(=O)(=O)c2ccc(C)s2)CC1 (configuration not stated),-0.4,-1.3%,-12%,-2,-0.6,9,0.6%
O=C(O)C1CCN(c2ncnc3ccc(-c4ccccc4C(F)(F)F)cc23)CC1,0.8,-1.5%,-9%,x,x,x,x
COc1ccc(C(=O)OCC(=O)Nc2ccccc2)cc1[N+](=O)[O-],-4.3,2.8%,29%,20,1.2,-9,1.3%
OC[C@@H]1CN(Cc2ccc(-c3ccccc3)cc2)C[C@H](n2cnc3c(NC4CCCC4)ncnc32)O1,x,6.2%,x,x,0.2,x,-2.8%
O=C(Cc1cccs1)Nc1nnc(SCC(=O)NC2CCCCC2)s1,8.6,10%,0%,18,-0.1,-2,-3.6%
Cc1ccc(C(=O)Nc2ccc(N3CCN(C)CC3)cc2)c(Cl)c1,0.0,-0.8%,16%,6,0.5,-15,x
COc1ccc(S(=O)(=O)NCCCn2ccnc2)cc1C(C)(C)C,0.2,-0.4%,25%,-7,0.0,5,x
CCC(=O)N1CCC2(CC1)Oc1ccc(Cl)cc1C(=O)C21CC(c2ccc(Cl)cc2)=NO1 (configuration not stated),-1.0,-0.8%,-2%,41,-0.2,u,-3.4%
CCSc1nnc(-c2cc(Br)ccc2NC(C)=O)c(=O)[nH]1,1.3,0.1%,23%,-7,0.1,7,x
S=c1nc2[nH]c3ccccc3c2n[nH]1,x,-1.8%,x,-11,-0.5,x,x
CCCCCCn1c(SCC(=O)c2ccccc2)nc2c1c(=O)[nH]c(=O)n2C,-2.5,-0.4%,-15%,-2,0.4,u,0.4%
Cc1cccc(OCc2nc(-c3ccccn3)n[nH]2)c1,-1.2,2.8%,1%,13,-1.0,19,2.3%
COc1cccc(NC(=O)C2CCCN2C(=O)Nc2cccc(F)c2)c1 (configuration not stated),0.9,-0.4%,0%,-7,3.9,12,-2.9%
CC(=O)c1ccc(OC2(C)CCN(Cc3ccc4c(c3)OCCO4)C2)cc1 (configuration not stated),x,1.7%,x,x,-0.4,x,-2.9%
COc1ccc(OCc2nnc(-c3ccccc3)o2)cc1,x,2.3%,x,-5,-0.1,x,0.1%
O=C(Nc1cccc(Cl)c1)C1CCCN1S(=O)(=O)c1cccc2cccnc12 (configuration not stated),x,0.8%,x,6,1.6,x,1.9%
COc1cc(/C=C/C(=O)OCC(=O)NCCC2=CCCCC2)ccc1O,1.6,0.6%,-2%,-16,1.3,-8,x

# High-throughput results (PubChem)
